Bioassay records from PubChem BioAssay.
FGF22 binding: binders of human FGF22 protein, primary screen, FGF22 synaptogenesis inhibitor project, biophysical, thermal shift, single point. 1.5% of 340,000 active. recombinant FGF22 thermal shift, SYPRO orange fluorescence; percent of sucrose octasulfate shift, DMSO zero. AID 651658, 2012. calls only at 9.99 µM. Fibroblast growth factor 22 (Homo sapiens), Q9HCT0;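 active = melting point raised past a set limit in the mean and every replicate; three in four hits are not shown here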
Target sequence (Q9HCT0 whole entry, looked up): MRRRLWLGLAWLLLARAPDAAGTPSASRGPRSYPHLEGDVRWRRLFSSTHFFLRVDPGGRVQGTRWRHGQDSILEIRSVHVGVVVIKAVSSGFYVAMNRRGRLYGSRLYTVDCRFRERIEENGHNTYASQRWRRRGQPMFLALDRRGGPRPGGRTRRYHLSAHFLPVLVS
Ecoli rRNA inh: reduced GFP signal of wild-type E. coli, primary screen, bacterial rRNA inhibitor project, GFP/RFP fluorescence, OD600, single point. E. coli WT GFP vs humanized-ribosome RFP mutants, 24 h; stronger effect = lower value; DMSO median 0, no signal -100. GFP signal change (wild-type ribosome), % (concentration not given with the values). 1.6% of 350,000 active. AID 720706, 2013;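 active = significant combined selectivity score with lowered wild-type GFP, culture density cut under 30%, mutant RFP and density less affected; inactive = any of these conditions unmet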; note: one replicate is shown; some compounds called inactive have numbers as strong as hits
Ecoli rRNA inh OD600: second read-out of Ecoli rRNA inh, no call of its own (marks repeat the call); OD600 change, %; measured here: OD600 growth;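 optical density of the mix in the first replicate; 0 = DMSO median and -100 = no signal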
Ecoli rRNA inh RFP: second read-out of Ecoli rRNA inh, no call of its own (marks repeat the call); RFP signal change, %; measured here: RFP humanized mutant strains;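 first replicate; 0 = DMSO median and -100 = no signal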
An asterisk follows results filed as active; i = inactive; + = active, no number. A portion of the library (hit frequency here may not be typical).

SMILES	FGF22 binding	Ecoli rRNA inh	Ecoli rRNA inh OD600	Ecoli rRNA inh RFP
C[C@H](CO)N1C[C@H](C)[C@H](CN(C)Cc2ccccc2F)Oc2cc(C3=CCCC3)ccc2S1(=O)=O	i	1.6	5.3	0.9
Cc1ccc(-c2cnc3c(c2)C(=O)N([C@H](C)CO)C[C@@H](C)[C@@H](CN(C)C(=O)c2cccnc2)O3)cc1	i	4.4	6.3	-7.0
O=C(NCCc1ccc(Cl)cc1)c1ccc2c(=O)[nH]c3c(C(=O)NCC4CCCO4)sc(=S)n3c2c1 (stereo not drawn)	i	-0.7	14.0	7.0
CCCNC(=O)C[C@H]1C[C@@H]2c3cc(N(C)C)ccc3O[C@@H]2[C@H](CO)O1	i	4.7	12.1	1.7
C[C@H]1CN([C@@H](C)CO)C(=O)c2cc(NC(=O)C3CCCCC3)ccc2O[C@@H]1CN(C)Cc1ccncc1	i	5.7	-4.0	-2.4
C[C@@H]1CN([C@@H](C)CO)C(=O)c2cc(NS(C)(=O)=O)ccc2O[C@H]1CN(C)C	i	3.5	-1.6	-2.0
C[C@H](CO)N1C[C@H](C)[C@@H](CN(C)C(=O)Nc2ccccc2)Oc2ncc(C#CC3CCCC3)cc2C1=O	i	-0.4	-6.5	2.0
CNC[C@H]1Oc2ccc(NC(=O)Nc3c(C)noc3C)cc2CC(=O)N([C@@H](C)CO)C[C@H]1C	i	0.4	4.7	0.9
CO[C@H]1CN(C)C(=O)c2ccc(NC(=O)Nc3c(C)noc3C)cc2OC[C@H](C)N(CC2CC2)C[C@H]1C	i	1.5	6.5	0.3
C[C@@H]1CN([C@@H](C)CO)C(=O)c2cc(NC(=O)CCCN(C)C)ccc2O[C@@H]1CN(C)Cc1ccccc1	i	9.6	3.6	-0.8
Cc1noc(C)c1NC(=O)N(C)C[C@H]1Oc2c(NC(=O)NC(C)C)cccc2C(=O)N([C@@H](C)CO)C[C@H]1C	i	0.8	4.3	-1.0
CO[C@H]1CN(C)C(=O)c2cc(NC(=O)C3CC3)ccc2OC[C@@H](C)N(CC2CCCC2)C[C@H]1C	i	1.1	5.7	-3.2
C[C@H]1CN([C@@H](C)CO)C(=O)c2cc(-c3cccc(C#N)c3)cnc2O[C@H]1CN(C)C(=O)c1cnccn1	i	3.5	7.4	-1.9
COc1ccc2c3c(n(C)c2c1)[C@H](CO)N(C)CC31CCN(C(=O)Nc2c(C)noc2C)CC1	i	2.5	-1.5	-2.5
C/C=C/c1cccc(-c2nc(C(=O)Nc3nccs3)cc3c2[C@@H](CCO)N(C(=O)NC(C)C)C3)c1	i	-0.2	-9.2	2.1
COc1cccc(-c2ccc([C@@H]3[C@@H](C#N)N(C(=O)Cc4ccccc4)[C@H]3CO)cc2)c1	i	-3.3	-7.6	6.4
CCCNC(=O)N[C@H]1C=C[C@@H](CC(=O)N2CCN(C)CC2)O[C@H]1CO	i	4.8	11.1	-1.9
CCNC(=O)[C@H]1[C@H](CO)[C@H]2Cn3c(ccc(-c4ccc(F)cc4)c3=O)[C@H]2N1C(=O)Cc1cccnc1	i	-0.4	0.6	-1.3
COc1ccc(NC(=O)Nc2ccc3c(c2)CC(=O)N([C@H](C)CO)C[C@H](C)[C@@H](CN(C)S(=O)(=O)c2cccs2)O3)cc1	i	3.7	13.0	1.2
C[C@H](O)C#Cc1ccc2c(c1)O[C@H](CN(C)Cc1ccccc1)[C@@H](C)CN([C@@H](C)CO)S2(=O)=O	i	-12.4	-26.1	8.1
CO[C@H]1CN(C)C(=O)c2cc(NC(=O)C3CCC3)ccc2OC[C@@H](C)N(C(=O)NC(C)C)C[C@H]1C	i	-1.3	-5.5	-1.1
O=C(Cc1ccccn1)N[C@@H]1CC[C@H](CCn2cc(-c3ccccc3)nn2)O[C@@H]1CO	i	-2.7	3.1	-3.7
C[C@@H]1CCCCO[C@@H](CN(C)S(=O)(=O)c2ccccc2)[C@H](C)CN([C@@H](C)CO)C(=O)c2cc(NS(=O)(=O)c3ccc(Cl)cc3)ccc2O1	i	-2.0	0.4	-1.5
C[C@H]1CN([C@@H](C)CO)C(=O)Cc2cc(NS(=O)(=O)c3cccs3)ccc2O[C@@H]1CN(C)C(=O)Nc1ccccc1	i	3.3	2.2	-1.8
COc1ccc(NC(=O)Nc2cccc3c2O[C@H](CN(C)Cc2ccc(-c4ccccc4)cc2)[C@H](C)CN([C@@H](C)CO)C3=O)cc1	i	-0.8	-5.2	8.7
O=C(NCC[C@@H]1CC[C@@H](NS(=O)(=O)c2cccc(F)c2)[C@H](CO)O1)C1CC1	i	0.1	-1.7	-3.7
CN(C)CC(=O)N1[C@@H](C#N)[C@@H](c2ccc(-c3ccccc3F)cc2)[C@@H]1CO	i	-4.4	-0.3	0.6
CCOC(=O)N(C)C[C@H]1OCc2ccccc2-c2c(n(C)c3ccccc23)C(=O)N([C@H](C)CO)C[C@H]1C	i	1.7	-1.7	1.3
COc1cccc(-c2cnc3c(c2)C(=O)N([C@@H](C)CO)C[C@H](C)[C@H](CN(C)Cc2ccc(F)cc2)O3)c1	i	-0.5	3.5	1.0
O=C(Nc1cccc(Cl)c1)N1C[C@@H]2[C@H](c3ccccc31)[C@H](CO)N2C(=O)C1CCCC1	i	-14.2	-17.9	-0.1

Looked up by compound from the list above (five):
SMILES	FGF22 binding	Ecoli rRNA inh	Ecoli rRNA inh OD600	Ecoli rRNA inh RFP
O=C(Cc1ccccn1)N[C@@H]1CC[C@H](CCn2cc(-c3ccccc3)nn2)O[C@@H]1CO	i	-2.7	3.1	-3.7
C[C@H]1CN([C@@H](C)CO)C(=O)Cc2cc(NS(=O)(=O)c3cccs3)ccc2O[C@@H]1CN(C)C(=O)Nc1ccccc1	i	3.3	2.2	-1.8
COc1ccc(NC(=O)Nc2cccc3c2O[C@H](CN(C)Cc2ccc(-c4ccccc4)cc2)[C@H](C)CN([C@@H](C)CO)C3=O)cc1	i	-0.8	-5.2	8.7
O=C(Nc1cccc(Cl)c1)N1C[C@@H]2[C@H](c3ccccc31)[C@H](CO)N2C(=O)C1CCCC1	i	-14.2	-17.9	-0.1
COc1ccc(NC(=O)Nc2ccc3c(c2)CC(=O)N([C@H](C)CO)C[C@H](C)[C@@H](CN(C)S(=O)(=O)c2cccs2)O3)cc1	i	3.7	13.0	1.2

The list goes on:
SMILES	FGF22 binding	Ecoli rRNA inh	Ecoli rRNA inh OD600	Ecoli rRNA inh RFP
O=C(C[C@H]1C=C[C@H](NS(=O)(=O)c2ccccc2)[C@H](CO)O1)NCc1ccc(Cl)c(Cl)c1	i	-13.3	-10.5	3.7
C[C@H](CO)N1C[C@H](C)[C@H](CN(C)C)Oc2cc(-c3ccccc3)ccc2S1(=O)=O	i	0.6	3.0	-2.9
COCC(=O)N1CCCCN2[C@H](CO)[C@@H](c3ccc(-c4ccc(OC)cc4)cc3)[C@H]2C1	i	8.9	3.4	-0.7
C[C@@H]1CCCCO[C@@H](CN(C)S(=O)(=O)c2cn(C)cn2)[C@H](C)CN([C@@H](C)CO)C(=O)c2cc(NS(C)(=O)=O)ccc2O1	i	3.0	14.6	-1.6
CO[C@H]1CN(C)C(=O)c2ccc(NC(=O)Nc3ccccc3)cc2OC[C@H](C)N(C(=O)CN(C)C)C[C@@H]1C	i	-1.4	-3.7	1.2
CC(=O)N1[C@@H](CO)[C@@H]2c3ccccc3N(S(=O)(=O)c3ccccc3F)C[C@@H]21	i	-1.6	1.0	-0.9
CN1C(=O)c2cc(NC(=O)c3cccc(F)c3)ccc2OC[C@H]2O[C@@H](CC(=O)N3CCc4ccccc4C3)CC[C@H]21	+	-13.8	-21.4	0.6
C[C@H]1CN([C@@H](C)CO)C(=O)c2cc(NC(=O)C3CCCCC3)ccc2O[C@@H]1CN(C)Cc1ccc2c(c1)OCO2	i	-1.2	-4.1	-4.0
CC=Cc1ccc2n(c1=O)C[C@@H]1[C@@H](CO)[C@H](C(=O)OC)N(Cc3ccccc3)[C@H]21 (mixture of isomers)	i	-0.4	3.0	-0.2
C[C@@H]1CN([C@H](C)CO)C(=O)c2cc(C#C[C@@H](C)O)cnc2O[C@@H]1CN(C)Cc1cncnc1	i	2.6	4.1	-3.3
CO[C@@H]1CN(C)C(=O)c2ccc(NC(=O)NC(C)C)cc2OC[C@H](C)N(C(=O)CN(C)C)C[C@@H]1C	i	3.7	4.0	0.3
CN(C)C(=O)c1cccc(-c2ccc(C3[C@@H]4CN(C(=O)Cc5ccccc5)C[C@H]3N4)cc2)c1 (stereo partly drawn)	i	-1.3	1.1	0.8
COc1cccc(-c2ccc3n(c2=O)C[C@@H]2[C@@H](CO)[C@H](C(=O)N4CCOCC4)N[C@H]32)c1	i	-0.6	5.6	-0.7
COc1ccc(NC(=O)Nc2ccc3c(c2)C(=O)N([C@@H](C)CO)C[C@H](C)[C@H](CN(C)S(=O)(=O)c2cn(C)cn2)O3)cc1	i	0.3	-1.0	0.1
O=C(C[C@@H]1C[C@H]2c3cc(NC(=O)Nc4ccccc4)ccc3O[C@H]2[C@H](CO)O1)NCc1ccncc1	i	2.6	-2.9	-2.2
C[C@H](CO)N1C[C@H](C)[C@@H](CN(C)C(=O)Nc2ccc(C(F)(F)F)cc2)OCCCC[C@H](C)Oc2ccc(NC(=O)Nc3ccc4c(c3)OCO4)cc2C1=O	i	-1.3	7.8	-0.9
C[C@@H]1CN([C@@H](C)CO)C(=O)c2cccc(NS(=O)(=O)c3ccc(F)cc3)c2O[C@H]1CN(C)S(=O)(=O)c1ccc(F)cc1	i	-1.7	-4.5	0.3
C[C@@H]1CCCCO[C@@H](CN(C)Cc2ccc(C(F)(F)F)cc2)[C@@H](C)CN([C@@H](C)CO)C(=O)c2cc(NS(=O)(=O)c3cccs3)ccc2O1	i	-1.4	-3.8	0.6
CO[C@H]1CN(C)C(=O)c2cc(NC(C)=O)ccc2OC[C@H](C)N(Cc2ccccc2F)C[C@H]1C	i	-3.3	-5.7	1.9
O=C(N[C@@H]1CC[C@@H](CCNS(=O)(=O)c2ccccc2)O[C@H]1CO)c1cccc(F)c1	i	-1.1	5.0	-1.1
C[C@H](CO)N1C[C@H](C)[C@H](CN(C)Cc2ccccc2)Oc2ccc(NS(=O)(=O)c3ccccc3)cc2C1=O	i	3.1	1.4	-1.6
COc1ccc(NC(=O)Nc2ccc3c(c2)C(=O)N([C@H](C)CO)C[C@H](C)[C@H](CN(C)Cc2ccc4c(c2)OCO4)O3)cc1	i	-1.3	-9.8	-0.7
CN(C)C(=O)C[C@@H]1CC[C@H]2[C@@H](COC[C@H](O)CN2CC2CCOCC2)O1	i	2.3	4.0	1.0
C[C@@H]1CCCCO[C@@H](CN(C)C(=O)CCC(F)(F)F)[C@@H](C)CN([C@@H](C)CO)C(=O)c2cc(NS(C)(=O)=O)ccc2O1	i	3.6	3.7	-3.3
CCS(=O)(=O)Nc1ccc2c(c1)C(=O)N(C)C[C@@H](OC)[C@H](C)CN[C@H](C)CO2	i	3.4	4.0	-1.9
CC(C)[C@@H](C)NC(=O)N(C)C[C@@H]1OCc2ccccc2-c2ccccc2C(=O)N([C@@H](C)CO)C[C@@H]1C	i	-0.1	4.9	-1.1
CN(C)Cc1c(C(C)(C)O)[nH]c2ccccc12	i	9.4	7.7	-1.7
O=C(Nc1ccccc1)[C@H]1[C@H](CO)[C@H]2Cn3c(ccc(C4=CCCCC4)c3=O)[C@H]2N1Cc1ccccn1	i	-0.9	-6.9	6.1
C[C@H]1CN([C@@H](C)CO)C(=O)c2c(c3ccccc3n2C)-c2ccccc2CO[C@H]1CN(C)S(=O)(=O)c1ccc(Cl)cc1	i	3.7	13.3	-6.7
O=C(C[C@@H]1C[C@H]2c3cc(NC(=O)c4ccc5c(c4)OCO5)ccc3O[C@H]2[C@@H](CO)O1)NC1CCCC1	i	-3.5	-8.6	-1.4
Cc1noc(C)c1NC(=O)N(C)C[C@@H]1Oc2ccc(NS(=O)(=O)c3c(C)noc3C)cc2CC(=O)N([C@@H](C)CO)C[C@@H]1C	i	0.9	7.9	0.5
CCC(=O)N1[C@@H]2c3ccc(-c4ccccc4F)c(=O)n3C[C@H]1[C@H](CO)[C@H]2C(=O)NC1CCCC1	i	2.1	7.7	-0.7
C[C@@H]1CN([C@@H](C)CO)C(=O)Cc2cc(NC(=O)Nc3ccc(F)cc3)ccc2O[C@H]1CN(C)C(=O)Nc1cccc2ccccc12	i	-1.2	-11.8	6.5
COc1ccc2nc(-c3ccc(CN4CCC5(CC4)CNc4ccccc45)cc3)c(-c3ccccc3)nc2c1	i	3.4	12.9	18.5
COC(=O)C[C@@H]1C[C@H]2c3cc(NS(=O)(=O)c4ccc(F)cc4)ccc3O[C@H]2[C@@H](CO)O1	i	-1.8	-0.6	-2.9
Cc1ccccc1-c1cnc2c(c1)C(=O)N([C@H](C)CO)C[C@H](C)[C@@H](CN(C)CC1CCCC1)O2	i	3.4	5.4	0.8
Cc1ccc(S(=O)(=O)N[C@@H]2CC[C@@H](CCNC(=O)c3ccccc3F)O[C@@H]2CO)cc1	i	3.5	-4.1	-1.5
O=C(C[C@H]1C[C@H]2c3cc(NC(=O)NC4CCCC4)ccc3O[C@H]2[C@@H](CO)O1)NCCN1CCCCC1	+	1.1	6.1	-1.4
O=C(C[C@H]1C[C@@H]2c3cc(NS(=O)(=O)c4ccccc4)ccc3O[C@@H]2[C@H](CO)O1)NC1CCCCC1	i	-3.2	-10.8	-1.6
